Choline anaer gr – blocks anaerobic gram-negative growth on choline; Gram-negative bacterium anaerobic choline minimal medium, absorbance growth; hits give low values; many inactives read as strong as hits in the columns shown; calls only; hit rate 0.2% among 55,000; AID 1963822;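 active = growth z-score on choline under -2 at 7 or 20 h with little or no fall on glycerol, limits in tiers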;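 also: stock transfer was 300 nL into about 50 µL; the organism is E. coli; final concentration not given here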
Choline anaer gr early – recorded beside Choline anaer gr, whose call it bears; z-score; measured here: choline growth z-score, timepoint 1;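 score of optical density at 7 h as mean of two plates; lower means less growth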
Starred values were filed as active, the others as inactive; i = inactive; & = joins results of further samples. The list is partial (hit frequency here may not be typical).

A first look (four entries):
SMILES	Choline anaer gr	Choline anaer gr early
Cc1cc(NCCN(C)C)n2nc(C(F)(F)F)c(-c3ccc(Cl)cc3)c2n1	i	0.68
CN1C(=O)c2ccccc2Sc2cc(-c3noc(CNC(=O)c4ccccc4)n3)ccc21	i	-1
CC(C)c1cc(NCc2cccnc2)n2nc(-c3cccnc3)nc2n1	i	-0.49
Cc1ccc(-n2c(=O)c3c(cnn3C)n(CC(=O)Nc3c(C)cccc3C)c2=O)cc1	i	0.95

Main list, from the first entry:
SMILES	Choline anaer gr	Choline anaer gr early
Cc1cc(NCCN(C)C)n2nc(C(F)(F)F)c(-c3ccc(Cl)cc3)c2n1	i	0.68
CN1C(=O)c2ccccc2Sc2cc(-c3noc(CNC(=O)c4ccccc4)n3)ccc21	i	-1
CC(C)c1cc(NCc2cccnc2)n2nc(-c3cccnc3)nc2n1	i	-0.49
Cc1ccc(-n2c(=O)c3c(cnn3C)n(CC(=O)Nc3c(C)cccc3C)c2=O)cc1	i	0.95
Cn1nnc2cc(-c3noc(CN4C(=O)COc5ccccc54)n3)ccc21	i	0.44
O=C(NCc1nnnn1-c1ccccc1)C1CC(=O)N(c2ccc(F)cc2)C1 (stereo unspecified)	i	-0.12
O=C(Nc1ccc(F)cc1)N1CCCN(c2nc3cc(F)ccc3n3cccc23)CC1	i	-0.26
CCCc1nc2nc(C)cc(Nc3ccc(Br)c(C)c3)n2n1	i	-0.9
CC(=O)SCC(Cc1ccccc1)C(=O)NCC(=O)OCc1ccccc1 (stereo unspecified)	i	0.55&0.23&0.8
COc1ccc(C2C(C(=O)O)c3ccccc3C(=O)N2C)cc1OC (stereo unspecified)	i	0.43
CCc1nc(-c2csc(S(=O)(=O)N3CCC(C(=O)NCc4cccnc4)CC3)c2)no1	i	-0.27
O=C(c1cccc(F)c1)N1CCC(c2ccncc2)CC1	i	-1.2
COC(=O)c1c(-c2ccccc2)noc1NC1CCS(=O)(=O)C1 (stereo unspecified)	i	0.36
CCOC(=O)c1noc2ncnc(Nc3cccc(Cl)c3)c12	i	1.7
Cc1ccc(C2C3=C(CCCC3=O)Nc3ccccc3N2C(=O)C(C)C)cc1 (stereo unspecified)	i	0.6
COc1ccc(Cl)cc1NC(=O)c1c(-c2ccc(C)cc2)nnc2ccccc12	i	0.32
COc1cccc(S(=O)(=O)Nc2ccc(-c3nnc(-c4ccccc4)o3)cc2)c1	i	1.9
CCn1c(C(=O)OC)cc2oc(C)cc21	i	-0.11
CC1CCc2nc(NC(=O)c3sc4ccccc4c3Cl)sc2C1 (stereo unspecified)	i	-1.1
Cc1cc(=O)[nH]c(SCc2nc(-c3ccccc3C)oc2C)n1	i	0.11
COC(=O)c1cc(-c2cccn2C)n[nH]1	i	-0.79
CCn1c(SCC(=O)Nc2ccccc2O)nnc1-c1cc2ccccc2o1	i	-1.5
O=C(NC1CC1)c1cc(-c2cccs2)n(C2CCS(=O)(=O)C2)n1 (stereo unspecified)	i	-0.56
Cc1ccc(-c2noc(C3CCCN3S(=O)(=O)c3ccc(C)c(C)c3)n2)cc1 (stereo unspecified)	i	2
Cc1occc1-c1nnc(SCC(=O)NCC2CCCO2)o1 (stereo unspecified)	i	-1.2
CN(C)C(=O)c1c(-c2ccc(F)cc2)nc2n1CCS2(=O)=O	i	-1.3
CCCc1cc(C2CCCN2Cc2cc(Br)ccc2F)no1 (stereo unspecified)	i	1.7
CC(C)CNC(=O)CCn1c(=O)c2ccccc2n2c(SCC(N)=O)nnc12	i	-0.5
CC(C)Cn1c(=O)c2ccccc2n2c(SCc3ccccc3)nnc12	i	-0.36
NC(=O)c1cn2c3c(cccc3c1=O)CC2	i	-0.31
CCOC(=O)c1c(NC(C)=O)c2c3c(sc2n1CC(=O)Nc1cccc(Cl)c1)CCCC3	i	-0.18
c1ccc2c(c1)CCN2c1c2c(nc3ncnn13)CCC2	i	-0.1
Cn1c(=O)n(C)c2cc(S(=O)(=O)N3CCCC3)c(Cl)cc21	i	0.85
CCCCNC(=O)C1CCN(c2ccc(F)cc2)C1=O (stereo unspecified)	i	1.2
CN1CCN(C2=Nc3ccccc3Oc3ccc(Cl)cc32)CC1	i	0.25&-0.46&0.63&0.07
Fc1ccc(-c2csc3ncnc(NCC4CCCO4)c23)cc1 (stereo unspecified)	i	0.72

Six entries from above, sorted by the number in Choline anaer gr early, lowest first:
mol,Choline anaer gr,Choline anaer gr early
Cc1occc1-c1nnc(SCC(=O)NCC2CCCO2)o1 (stereo unspecified),i,-1.2
CC1CCc2nc(NC(=O)c3sc4ccccc4c3Cl)sc2C1 (stereo unspecified),i,-1.1
CC(C)CNC(=O)CCn1c(=O)c2ccccc2n2c(SCC(N)=O)nnc12,i,-0.5
O=C(NCc1nnnn1-c1ccccc1)C1CC(=O)N(c2ccc(F)cc2)C1 (stereo unspecified),i,-0.12
COc1ccc(Cl)cc1NC(=O)c1c(-c2ccc(C)cc2)nnc2ccccc12,i,0.32
Cc1ccc(-c2noc(C3CCCN3S(=O)(=O)c3ccc(C)c(C)c3)n2)cc1 (stereo unspecified),i,2

Returning to the listing; the 2 compounds before the break are reprinted first.
SMILES	Choline anaer gr	Choline anaer gr early
CN1CCN(C2=Nc3ccccc3Oc3ccc(Cl)cc32)CC1	i	0.25&-0.46&0.63&0.07
Fc1ccc(-c2csc3ncnc(NCC4CCCO4)c23)cc1 (stereo unspecified)	i	0.72
CCC(=O)Nc1ccc(N2CCCC2)c(C(=O)O)c1	i	-0.82
COc1ccc(-c2nc3n(c2C(=O)NCC2CCCO2)CCS3(=O)=O)cc1 (stereo unspecified)	i	0.15
CCOC(=O)c1c(S(=O)(=O)N2CCC(C(=O)Nc3ccc(OCC)cc3)CC2)c(C)n(C)c1C	i	-0.33
Cc1ccc2c(Cl)c(C(=O)Nc3nc4c(s3)CC(C)CC4)sc2c1 (stereo unspecified)	i	-0.9
CCOC(=O)c1[nH]c(C)c(CCC(=O)N2CCCC(C(=O)NCCCN3CCCC3)C2)c1C (stereo unspecified)	i	-0.36
Cc1cccc(NC(=O)CN2C(=O)c3cccnc3Sc3ccccc32)c1	i	0.93
COc1ccc(OC)c(NS(=O)(=O)c2cc(N3C(=O)CCS3(=O)=O)ccc2OC)c1	i	0.52
Cc1ccc(NC(=O)C2CCN(S(=O)(=O)c3cc(-c4noc(C5CC5)n4)ccc3C)CC2)nc1	i	1.1
Cc1noc(C)c1C1CCCN1C(=O)Nc1ccc(Cl)cc1 (stereo unspecified)	i	1.7
CCc1csc(-c2ccc(S(=O)(=O)NC(CC)c3cccs3)s2)n1 (stereo unspecified)	i	-0.45
CCOC(=O)c1[nH]c(C)c(CN(Cc2ccc(OC)cc2)C(=O)Nc2ccc3c(c2)OCCO3)c1C	i	1.1
Nc1nc(Nc2ccccc2)sc1C(=O)c1ccc(Cl)cc1	i	2.6
CCOc1ccc(NC(=O)C2CCCN(S(=O)(=O)Cc3ccccc3C)C2)cc1 (stereo unspecified)	i	0.89
CCc1cc2c(N3CCCC(C(=O)N4CCOCC4)C3)ncnc2s1 (stereo unspecified)	i	-0.14
O=C(NCC1CCCO1)c1cc(NS(=O)(=O)c2ccc(F)cc2)cnc1N1CCNCC1 (stereo unspecified)	i	0.31
CN(C)c1ccc(Nc2cc(-c3ccccc3)nc3nc(-c4cccnc4)nn23)cc1	i	-0.16
Cc1ccc(/C=C/c2onc(C)c2S(=O)(=O)N2CCCC(C(=O)Nc3cccnc3)C2)cc1 (stereo unspecified)	i	1.1
O=C1COc2ccc(C(=O)N3CCCCC3)cc2N1	i	0.07
CCOC(=O)c1cn(Cc2ccc(Cl)cc2)c2nc(C)ccc2c1=O	i	0.72
COc1ccc(Oc2ccc(-c3cccc(C(=O)NCC(C)C)c3)nn2)cc1	i	-0.39
CC(C)(NC(=O)CC1CCCC1)c1nc2c(c(C(N)=O)n1)OCCO2	i	-0.02
Cc1nn(-c2ccc3nncn3n2)c(C)c1CCC(=O)Nc1cc(F)ccc1F	i	-0.09
O=C1[C@@H]2CCCN2[C@@H](c2ccccc2)N1c1nccs1	i	-2.1
O=C(NCc1c(-c2ccc(Cl)cc2)nc2n1CCS2)c1cccnc1	i	-0.62
CN(C)c1ccc(-c2noc(C3CCCC3)n2)cc1	i	0.77
COc1ccc(-n2c(C)cc(CNS(=O)(=O)c3cc(OC)ccc3OC)c2C)cc1	i	-0.31
Cc1ccc(-n2nc(N3CCN(C(=O)c4cnccn4)CC3)ccc2=O)cc1	i	-0.63
Cc1ccc2nc(COc3ccc(NC(=O)Nc4ccc(Cl)cc4)cc3)cc(=O)n2c1	i	0.3
Cc1cccc(-c2cc(Nc3cccc(C(=O)NCC(C)C)c3)ncn2)c1	i	0.67
O=S(=O)(c1ccc(Cl)cc1)N1CCC2(CC1)Nc1ccccc1-n1cccc12	i	0.4
O=C(OCCN=C1NS(=O)(=O)c2ccccc21)c1ccc(S(=O)(=O)N2CCOCC2)cc1	i	-0.45
C=CCn1nnc(NCc2ccc(-c3ccc(Cl)cc3Cl)o2)n1	i	0.62
COc1ccccc1N(CC(=O)N1CCN(c2ccccc2)CC1)S(C)(=O)=O	i	0.86
Brc1ccc(-c2ccc(CNc3ncn[nH]3)o2)cc1	i	0.9
Cn1cc(C2=C(c3ccc(Cl)cc3Cl)C(=O)NC2=O)c2ccccc21	i	-0.78&0.59
O=S1(=O)N=C(N2CCCC2)c2ccccc21	i	0.19
CCN1CCN(c2nc3ncn(CC(=O)Nc4ccc(F)cc4F)c(=O)c3s2)CC1	i	0.07
CCC(=O)N1CCCC1c1nc2ccccc2n1CCOc1cccc(OC)c1 (stereo unspecified)	i	-0.22
C=CCn1c(=O)c(=O)n(Cc2ccc(C(=O)N3CCC(N4CCCCC4)CC3)cc2)c2ccccc21	i	0.14
O=C(NCc1cccc(Cl)c1)c1ccc(NC(=O)N2CCSc3ccccc32)cc1	i	0.13
COc1ccc(N2C(=O)c3cc4ccsc4n3CC2(C)C(=O)NCc2ccccc2OC)cc1 (stereo unspecified)	i	0.94
CCCc1cc(C2CCCN2C(=O)NC2(CC(=O)OCC)CCCCC2)no1 (stereo unspecified)	i	-0.3
NC(=O)c1c(NC(=O)COCc2cc(-c3ccc4c(c3)OCO4)on2)sc2c1CCCC2	i	-1.8
CN(C)c1nc2ncnc(SCC(=O)Nc3ccc4c(c3)OCCO4)c2s1	i	0.04
O=C(Nc1ccc2c(c1)OCCO2)C1CCCCN1S(=O)(=O)c1ccc(Br)cc1 (stereo unspecified)	i	1.4
COC(=O)C1=CNC=C(C(=O)OC)C1c1ccccc1Cl	i	-0.28
O=C(NCc1n[nH]c(=O)c2ccccc12)C(=O)NC1CCCCC1	i	-0.36
C[C@H]1[C@@H](OC(=O)CCC(=O)O)O[C@@H]2OC3(C)CC[C@H]4[C@H](C)CC[C@@H]1[C@@]24OO3	i	-1.7
CNC(=O)Cc1ccc(-n2c(=O)c3ccccc3n(CC(=O)NCc3ccc(Cl)cc3)c2=O)cc1	i	0.71
OC(COc1ccccc1Cl)Cn1c(Cc2ccccc2)nc2ccccc21 (stereo unspecified)	i	0.22
C=CCNC(=O)CSCc1noc(-c2ccc(C)cc2)n1	i	-1.2
O=C(Nc1ccc(SCCN2CCCC2)nc1)C1COc2ccccc2O1 (stereo unspecified)	i	-1
COC(=O)c1cccc(NC(=O)N2CCc3c(c(CN(C(C)=O)c4ccccc4)nn3C)C2)c1	i	-0.79
COc1ccccc1N1CCN(CCCCNC(=O)c2ccc(-c3ccc(C(C)=O)cc3)cc2)CC1	i	1.7
COc1ccc(-c2csc(Nc3ccccn3)n2)cc1OC	i	0.38
Cn1nnc2cc(C(=O)Nc3ccccc3F)ccc21	i	0.37
C=CCNC(=O)c1nc2nc(-c3ccc(C)cc3)cc(C(F)(F)F)n2n1	i	-0.57
CC(C)Cc1cc(-c2nn3c(Cc4ccccc4)nnc3s2)n[nH]1	i	-0.17
CCOC1CCN(C(C)=O)CC1	i	0.67
CN(Cc1cccn1C)C(=O)NC(C)(C)C	i	-0.46

New compounds follow:
SMILES	Choline anaer gr	Choline anaer gr early
CC(=O)N1CCCSc2ccc(S(=O)(=O)N3CCc4ccccc4C3)cc21	i	0.96
Cc1cc2nnc(SCC(=O)Nc3sc(-c4ccccc4)cc3C(N)=O)n2c2ccccc12	i	-0.89
Cc1ccc(NC(=O)c2ncn(-c3ccccc3)n2)cc1F	i	-0.42
CCS(=O)(=O)c1nc2ccc(NS(=O)(=O)CCc3ccccc3)cc2s1	i	-0.47
CN(CC1COCCO1)c1ccc(NC(=O)c2ccc(Br)cc2)cc1C(=O)O (stereo unspecified)	i	0.14
Brc1ccc(OCc2nnc3sc(CCc4ccccc4)nn23)cc1	i	0.11
Cc1ccccc1C(=O)Nc1ccc2c(c1)CCC(=O)N2	i	-0.79
Cc1cc(C(=O)NCC(C)(C)N2CCCCC2)c2c(=O)n(C)c(=O)n(C)c2n1	i	-1.8
Cc1ccc(C(=O)N2CCCC2c2cc(C)no2)cc1 (stereo unspecified)	i	-0.61
O=C(NCc1ccc(F)cc1Cl)c1sc2ncccc2c1-n1cccc1	i	-0.35
Nc1c(-c2nnc(SCc3ccc(F)cc3)n2C2CC2)sc2ncccc12	i	0.11
CCOc1nc2cccnc2n(C(C)C(=O)N(CC)c2cccc(C)c2)c1=O (stereo unspecified)	i	0.7
COc1cccc(NC(=O)c2ccc3c(c2)N(C)C(=O)c2ccccc2O3)c1	i	0.81
Cc1noc(C)c1CC(=O)N1CCCCC1CCN1CCCCC1 (stereo unspecified)	i	0.02
CCOCCCNC(=O)C1CCCN(c2cc(=O)n(C)c(=O)n2C)C1 (stereo unspecified)	i	0.46
CCc1noc(-c2ccc(NC(=O)C3CC(=O)N(c4cccc(C)c4)C3)cc2)n1 (stereo unspecified)	i	1.3

Bioassay records as filed in PubChem.
